# RE007 growth inh: less growth of the S. pombe RE007 Vpr strain; S. pombe RE007 Vpr strain, BacTiter-Glo ATP luminescence, 24 h; control for the full effect not named in the record; Potency, µM (highest dose often 92.2 µM), for inactives: at the highest dose activity change, negative = less growth; 360,000 compounds, 0.21% hits; AID 651644; active = well fitted falling curve with a large enough effect; inconclusive = small, poorly fitted or top-dose-only effect; inactive = no such curve, though single readings can be large or run the other way;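 also: % is scaled to controls: 0 for no effect and ±100 for the full control effect; nearly all actives have a fitted effect of over 50% in size; the assay follows cell death caused by Vpr and the record does not say whether a fall means rescue or toxicity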
#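 Fission yeast strain RE007, carrying one chromosomally integrated HIV-1 vpr copy, was seeded at OD 0.01 in PMG+AL medium with 23 nL pinned compound. After 24 h at 30 °C and 99% humidity, viability was read by BacTiter-Glo luminescence.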
# NS1 inh: inhibitors of influenza NS1 protein function | Potency, µM (titrated, usually from 46.1 µM), without a hit: top-dose activity, positive = more growth | S. cerevisiae slowed by influenza A NS1, growth recovery by OD600 | 270,000 compounds, 0.4% hits; also: actives are rising curves; nearly all actives have a fitted effect of over 50% in size
#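 In this qHTS, NS1 from influenza A is expressed in budding yeast, where it slows growth. Cells are switched from glucose to 2% galactose medium (pH 6.0, -URA), treated with compound, and growth recovery is read at OD600.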
# Marburg entry inh: Marburg virus entry inhibition; Marburg virus pseudotyped entry inhibition, cell reporter; control for the full effect not named in the record; about a third of the inactives were read at about 46 µM; Potency, µM (doses to about 37.8 µM), for the others: at the top dose activity change, negative = inhibition, actives largely listed as inhibitors; 300,000 compounds, 1.8% hits; active = well fitted inhibition curve with a large enough effect; inconclusive = small, poorly fitted or top-dose-only effect, or effect the other way; inactive = flat fitted curve, though single readings scatter; tested in HEK293 cells; about a fifth of its hits are not listed in these tables; also: % is scaled to controls: 0 for no effect and ±100 for the full control effect; luciferase read-out
# SARS PLP yeast: blocks SARS-CoV papain-like protease in a yeast assay; 330,000 compounds, 0.19% hits; S. cerevisiae expressing SARS-CoV PLpro, growth rescue; control for the full effect not named in the record; Potency, µM (top dose mostly 32.9 µM), inactives show top-dose activity, positive = growth rescue; AID 485353; also: 0% is about no effect; nearly all actives have a fitted effect of over 55% in size; growth read by luminescence after 48 h
# Lassa entry inh: Lassa virus entry inhibition; Potency, µM (series often up to 37.9 µM), for the others: at the highest dose activity change, negative = inhibition, hits mostly inhibitors; 300,000 compounds, 1.2% hits; Lassa virus pseudotype entry inhibition, cell reporter; control for the full effect not named in the record; active means well fitted inhibition curve with a large enough effect; inconclusive means small, poorly fitted or top-dose-only effect, or effect the other way; inactive means flat fitted curve, though single readings scatter; tested in HEK293 cells; also: % is scaled to controls: 0 for no effect and ±100 for the full control effect; nearly all actives have a fitted effect of over 50% in size; luciferase read-out
# 2A StopGo: FMDV 2A StopGo reporter, luciferase signal. Potency, µM (series often up to 57.9 µM), for the others: at the highest dose signal change, negative = less light. 410,000 compounds, 1.2% hits. human cells with a luciferase reporter of 2A StopGo recoding; control for the full effect not named in the record; active = well fitted falling curve with a large enough effect; inconclusive = small, poorly fitted or top-dose-only effect; inactive = no such curve, though single readings can be large or run the other way; tested in HEK293T cells; also: % is scaled to controls: 0 for no effect and ±100 for the full control effect; nearly all actives have a fitted effect of over 45% in size; luciferase light after 4 h
# Cruzain inh noDet: cruzain (T. cruzi) inhibition without detergent | AID 1476 | Potency, µM, for the others: max response, negative = inhibition, hits mostly inhibitors | purified cruzain, Z-FR-AMC fluorescence, no detergent | 200,000 compounds, 2.3% hits | P25779; active = well fitted curve in the direction sought with a large enough effect; inconclusive = small, poorly fitted or top-dose-only effect, or another doubt; inactive = no such curve, though single readings can be large; an effect the other way counts as inactive or inconclusive;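 also: plate controls were enzyme without inhibitor for no effect and buffer without enzyme for full effect; nearly all actives have a fitted effect of over 40% in size; top concentration of the series not given in the record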
# Target sequence (P25779 123-467 limits assumed): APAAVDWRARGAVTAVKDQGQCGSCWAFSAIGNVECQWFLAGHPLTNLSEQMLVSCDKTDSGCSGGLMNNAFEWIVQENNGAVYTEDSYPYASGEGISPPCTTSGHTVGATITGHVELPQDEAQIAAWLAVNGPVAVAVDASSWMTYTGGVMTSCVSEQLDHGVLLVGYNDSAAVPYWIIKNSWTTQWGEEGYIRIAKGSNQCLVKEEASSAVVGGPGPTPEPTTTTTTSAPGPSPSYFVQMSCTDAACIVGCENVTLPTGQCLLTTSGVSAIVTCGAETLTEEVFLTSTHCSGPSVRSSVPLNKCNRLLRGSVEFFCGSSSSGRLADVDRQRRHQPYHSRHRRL
#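 Purified cruzain at 1.5 nM, pre-incubated 15 min with compound at room temperature in 100 mM sodium acetate pH 5.5, 5 mM DTT, 0.00005% Triton X-100. Reaction started with 2 uM Z-FR-AMC; AMC fluorescence increase over 60 s gives rate.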
# Cruzain inh Det: blocks cruzain activity in presence of Triton detergent; P25779; purified cruzain, Z-FR-AMC fluorescence, 0.01% Triton; 200,000 compounds, 0.43% hits; Potency, µM, for inactives: max response, negative = inhibition, actives largely listed as inhibitors; AID 1478; active = well fitted curve in the direction sought with a large enough effect; inconclusive = small, poorly fitted or top-dose-only effect, or another doubt; inactive = no such curve, though single readings can be large; an effect the other way counts as inactive or inconclusive;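 also: plate controls were neutral wells for no effect and buffer without enzyme for full effect; nearly all actives have a fitted effect of over 40% in size; top concentration of the series not given in the record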
#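 Sodium acetate buffer (100 mM, pH 5.5) containing 5 mM DTT and 0.01% Triton X-100 hosted 1.5 nM cruzain and test compound for 15 min at room temperature. Cleavage of 2 uM Z-FR-AMC was then tracked by fluorescence.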
# Numbers without * were called inactive; u = inconclusive; x = not tested or not shown; [ ] = remark or other dose. Unless noted, calls follow the shape of the dose curve; as a rule, active means well fitted rising curve with a large enough effect; inconclusive means small, poorly fitted or top-dose-only effect; inactive means no such curve, though single readings can be large or run the other way. Potency is read from the fitted curve at half-maximal effect. No enrichment for hits. About 4.8% of those tested had a hit in this group.
SMILES,RE007 growth inh,NS1 inh,Marburg entry inh,SARS PLP yeast,Lassa entry inh,2A StopGo,Cruzain inh noDet,Cruzain inh Det
CCOc1ccccc1N1CCN(C(=O)c2ccc(-c3ccc(OC(C)=O)cc3)cc2)CC1,7%,15%,x,-2%,x,5%,x,x
O=C(CSc1nnc2c(n1)[nH]c1ccccc12)Nc1cccc(S(=O)(=O)N2CCOCC2)c1,5%,u,x,-1%,x,u,x,x
COC(=O)c1c(C)[nH]c(C(=O)OCC(=O)NCC(C)C)c1C,6%,-6%,-20%,2%,-1%,-24%,5%,7.0%
CN(C)c1nc(-c2ccccc2)nc(-c2ccc(Cl)cc2)c1C#N,-1%,11%,0%,1%,18%,-17%,-25%,-6.6%
Cn1cnc([N+](=O)[O-])c1Nc1ccccc1O,-6%,6%,-29%,-4%,13%,-7%,2%,-8.6%
CN(C1CCCCC1)S(=O)(=O)c1ccc(F)c(C(=O)Nc2ccc(C(F)(F)F)cc2)c1,x,x,x,x,9%[46.1 µM],u,-11%,0.0%
Cc1c(Br)c(C(N)=O)nn1C,11%,8%,26%,2%,0%,10%,-5%,6.8%
COc1ccc(Br)cc1/C=C\C(=O)NCc1cccnc1,-6%,-9%,4%[46.1 µM],-1%,-6%,8%,x,x
O=C(NCCN1CCCCCC1)C1CCN(S(=O)(=O)N2CCOCC2)CC1,8%,-3%,-29%,3%,7%,1%,-3%,2.7%
O=C(OCc1ccccc1Cl)c1ccc(-n2cnnc2)cc1,7%,-79%,2%,-6%,8%,-13%,-1%,-2.5%
O=C(CN1CCN(Cc2ccc3c(c2)OCO3)CC1)Nc1ccc2c(c1)OCO2,-18%,1%,-1%[46.1 µM],13%,12%,-20%,7%,7.4%
CC(C)C(=O)NN1c2ccccc2CCc2ccccc21,-9%,8%,x,1%,x,-29%,x,x
COc1cc(C2NC(=O)NC(c3ccccc3)=C2C(C)=O)c(Br)c(Br)c1O (stereo not given),1%,28%,x,1%,x,-5%,x,x
Fc1ccc(CNC(=S)NCc2ccccc2)cc1,-12%,-37%,2%,5%,-17%,55%[activator],x,x
Cc1ccc(-c2csc(NC(=O)c3ccco3)n2)cc1C,u,-69%,u,-16%,u,-9%,x,x
CC1(C)NC(=O)N(CNc2cc(Cl)ccc2Cl)C1=O,-19%,-1%,2%[46.1 µM],1%,-2%,-7%,-5%,-1.4%
Fc1ccc(N2CCN(Cc3nnc(-c4ccccc4)o3)CC2)cc1,-13%,-8%,-32%,-10%,7%,-13%,6%,2.3%
Nc1ncnc(Nc2cccc(Cl)c2Cl)n1,-6%,-9%,x,1%,x,42%[activator],x,x
Cc1cc(OCCn2cc(/C(N)=N/O)c3ccccc32)ccc1Cl,0%,u,u,-8%,24%,x,u,-8.5%
Cc1c(OC(=O)c2ccc([N+](=O)[O-])cc2)c2c(c[n+]1C)COC(C)(C)OC2,u,u,2%,1%,19%,2%,1%,-2.2%
NC(=O)C1CCN(C(=O)CCc2nc3sc4c(c3c(=O)[nH]2)CCCC4)CC1,8%,x,u,-2%,1%,14%,x,x
C#CCOCCOCCOCCNc1nc(N2CCN(C(=O)[C@H](CCCCN)n3cc([C@@H](N)C(C)CC)nn3)CC2)nc(N2CCN(C(=O)[C@H](Cc3cc4ccccc4[nH]3)n3cc([C@@H](N)CC(C)C)nn3)CC2)n1 (stereo not given in full),18%,-4%,x,1%,x,19%,x,x
COc1ccc(CCNS(=O)(=O)c2cccc3nsnc23)cc1OC,-11%,7%,-6%,10%,1%,0%,0%,0.0%
O=c1[nH]c(C2CCN(S(=O)(=O)c3ccc(C(F)(F)F)cc3)CC2)nc2c1nnn2Cc1ccc(F)cc1,-12%,u,u,1%,u,-6%,x,x
O=C(O)c1ccccc1,4%,x,x,4%,x,-11%,5%,6.2%
Cc1c(C)c2ccc(OCC(=O)Nc3ccc(S(N)(=O)=O)cc3)c(C)c2oc1=O,-10%,-5%,x,-1%,x,u,x,x
Cc1cc(Cl)c(S(=O)(=O)NC(C(=O)O)C(C)C)cc1OCC(=O)NC1CCCCC1 (stereo not given),26%,2%,-11%,-5%,0%,19%,u,-0.1%
CCc1ccc(NC(=O)CSc2nnc(-c3ccco3)o2)cc1,-8%,-21%,u,-5%,u,18%,x,x
COc1ccc(CCNC(=O)c2cc3c(=O)n(C)c4ccccc4c3s2)cc1OC,x,x,3%[46.1 µM],x,5%[46.1 µM],-27%,7%,-3.9%
O=C(Nc1nnc(-c2cccs2)o1)c1cccc(C(F)(F)F)c1,-17%,-170%,x,21%,x,-8%,-14%,-2.8%
O=C(Nc1ccccc1C(=O)NC1CC1)c1ccc([N+](=O)[O-])o1,5%,x,u,-3%,-20%,-26%,x,x
COc1ccccc1NC(=O)CC1SC(=N)N(c2ccccc2)C1=O (stereo not given),-3%,7%,-9%[46.1 µM],0%,u,-27%,x,x
COc1ccc(OC)c(NC(=O)CCc2c[nH]c3ccccc23)c1,4%,x,u,-8%,u,-13%,x,x
COc1ccc(NC(=O)Cn2c(=O)n(Cc3ccc4c(c3)OCO4)c(=O)c3ccc(C(=O)NC4CCCCC4)cc32)cc1,x,x,4%[46.1 µM],x,13%[46.1 µM],-8%,-20%,0.1%
O=C(Nc1ccccc1)c1cc(-c2ccccc2Cl)no1,u,-41%,u,-21%,-4%,26%,-3%,-3.6%
CC(=O)Nc1cccn(Cc2c(Cl)cccc2Cl)c1=O,17%,-3%,-1%[46.1 µM],-7%,-14%,6%,x,x
Cc1ccc2nc3sc(C(=O)Nc4c(C)[nH]c(=O)[nH]c4=O)c(N)c3cc2c1,26%,5%,u,6%,21%,26%,-6%,-6.8%
Cc1cc([N+](=O)[O-])nn1CC(=O)NNC(=S)Nc1ccc(Cl)cc1,-10%,7%,-2%,4%,-30%[14.3 µM],-14%,7%,6.4%
O=C(O)/C=C/c1cn(-c2ccccc2)nc1-c1cc2ccccc2oc1=O,5%,2%,x,2%,x,35%[activator],x,x
O=C(NC1CC1)C1=C[C@@H](C2CCCCC2)C[C@@H](OCc2ccc(CO)cc2)O1,12%,2%,x,-2%,x,-22%,x,x
CCc1sc(C(=O)NCc2ccco2)cc1Br,-16%,-105%,x,-12%,x,-10%,x,x
O=C(c1ccccc1)C1CC=CCC1C(=O)c1ccccc1 (stereo not given),-8%,x,-2%[46.1 µM],x,-34%[46.1 µM],-15%,x,x
COC(=O)C(CC(=O)c1ccccc1)CC(=O)c1ccccc1,-3%,-3%,x,-1%,x,44%[activator],x,x
O=C(CCl)NC(=O)NC12CC3CC(CC(C3)C1)C2,34%,-67%,u,-16%,u,u,-10%,-1.8%
CCCCCSc1cc(OC)c(CCNC)cc1OC,-3%,5%,u,-5%,u,0%,1%,2.3%

# Retrieved one by one from the entries so far:
SMILES,RE007 growth inh,NS1 inh,Marburg entry inh,SARS PLP yeast,Lassa entry inh,2A StopGo,Cruzain inh noDet,Cruzain inh Det
O=C(O)/C=C/c1cn(-c2ccccc2)nc1-c1cc2ccccc2oc1=O,5%,2%,x,2%,x,35%[activator],x,x
O=C(c1ccccc1)C1CC=CCC1C(=O)c1ccccc1 (stereo not given),-8%,x,-2%[46.1 µM],x,-34%[46.1 µM],-15%,x,x

# The listing continues.
SMILES,RE007 growth inh,NS1 inh,Marburg entry inh,SARS PLP yeast,Lassa entry inh,2A StopGo,Cruzain inh noDet,Cruzain inh Det
C/C(=N/NC(=O)C1COc2ccccc2O1)c1ccco1 (stereo not given),6%,-2%,6%,u,u,11%,-4%,-5.7%
COc1ccccc1NC(=O)CCc1nc2ccccc2s1,5%,-8%,26%[46.1 µM],-4%,-1%,17%,x,x
Cc1c(C)c(C)c(CN2CCSCC2)c(C)c1C,-5%,0%,x,3%,x,-24%,x,x
Cc1ccc(N2C(=O)/C(=C/c3ccc(CN(CCC#N)S(C)(=O)=O)o3)C(=O)NC2=S)cc1C,x,16%,-4%,-4%,x,x,u,-27%
CC1(C)CC(=O)C(C=NCCCn2ccnc2)=C(O)C1,1%,-3%,-2%,0%,-2%,17%,-1%,5.7%
NC(=S)n1[nH]c(-c2ccc([N+](=O)[O-])cc2)c(N=Nc2ccc(O)cc2)c1=O,0%,-4%,22%,-11%,1%,-27%,0.63µM*,0.35µM*
O=C(N/N=C/c1sc(N2CCOCC2)nc1-c1ccccc1)c1cccc(S(=O)(=O)N2CCOCC2)c1,10%,14%,x,0%,x,-20%,x,x
O=C(COC(=O)c1cncc(Br)c1)NC1CC1,2%,0%,7%,3%,22%,16%,8%,6.4%
O=C(Nc1ccc(C(=O)NCc2ccccc2)cc1)C1=CSCCO1,-15%,-1%,x,-1%,x,68%[activator],x,x
CC1CCc2c(sc(/N=C/N(C)C)c2C#N)C1 (stereo not given),-19%,3%,u,-8%,-14%[46.1 µM],31%[activator],x,x
Cc1ccc(C)c2[nH]c(=O)c(CN(CC3CCCO3)C(=O)NC3CCCCC3)cc12 (stereo not given),-6%,2%,7%,0%,-2%,24%,u,-4.0%
CCCCOC(=O)c1ccc(NC(=O)Nc2ccc(OC)c(OC)c2)cc1,-20%,10%,1%,-7%,-26%,-2%,27%,-3.7%
O=C(Nn1cnc2ccccc2c1=O)c1c(F)cccc1F,21%,-4%,x,1%,x,-14%,x,x
COCCCNC(=S)NNC(=S)Nc1ccc(OC)cc1,-15%,-37%,x,-1%,x,11%,x,x
Cc1scc(C(=O)NNC(=S)NCC2CCCO2)c1C (stereo not given),16%,-15%,15%,4%,18%,15%,-2%,7.5%
CC1CN(CCC(=O)Nc2ccc3c(c2)CCC3)CC(C)O1 (stereo not given),-14%,2%,-8%,-1%,-17%,x,11%,5.7%
CC1(C)C2([N+](=O)[O-])CN3CC1([N+](=O)[O-])CN(C2)C3c1ccccc1 (stereo not given),-1%,1%,16%,5%,-9%,0%,20µM*,3.9%
COc1cccc(C2CC(=O)Nc3c2c(=O)[nH]c2nc4ccccc4n32)c1 (stereo not given),x,x,-1%[46.1 µM],x,-3%[46.1 µM],-13%,-4%,-0.8%
